Source: PubChem BioAssay (National Center for Advancing Translational Sciences (NCATS))
hNpr1 antagonist: Natriuretic polypeptide receptor (hNpr1) antagonism - Primary qHTS. HEK293 hNpr1 GloSensor cGMP, ANP-stimulated luminescence. actives 1.6% (n = 76,000). AID 1347048, 2019. Atrial natriuretic peptide receptor 1 (Homo sapiens), P16066. Potency, µM (series often up to 46.3 µM), for inactives: at the highest dose activity change, negative = inhibition, hits mostly inhibitors; active = well fitted inhibition curve with a large enough effect; inconclusive = small, poorly fitted or top-dose-only effect; inactive = no such curve, though single readings can be large or run the other way;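 further: nearly all actives have a fitted effect of over 60% in size; nearly all hits also lower the signal before the agonist is added; a reference antagonist and vehicle were the controls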
Target sequence (P16066 whole entry, looked up): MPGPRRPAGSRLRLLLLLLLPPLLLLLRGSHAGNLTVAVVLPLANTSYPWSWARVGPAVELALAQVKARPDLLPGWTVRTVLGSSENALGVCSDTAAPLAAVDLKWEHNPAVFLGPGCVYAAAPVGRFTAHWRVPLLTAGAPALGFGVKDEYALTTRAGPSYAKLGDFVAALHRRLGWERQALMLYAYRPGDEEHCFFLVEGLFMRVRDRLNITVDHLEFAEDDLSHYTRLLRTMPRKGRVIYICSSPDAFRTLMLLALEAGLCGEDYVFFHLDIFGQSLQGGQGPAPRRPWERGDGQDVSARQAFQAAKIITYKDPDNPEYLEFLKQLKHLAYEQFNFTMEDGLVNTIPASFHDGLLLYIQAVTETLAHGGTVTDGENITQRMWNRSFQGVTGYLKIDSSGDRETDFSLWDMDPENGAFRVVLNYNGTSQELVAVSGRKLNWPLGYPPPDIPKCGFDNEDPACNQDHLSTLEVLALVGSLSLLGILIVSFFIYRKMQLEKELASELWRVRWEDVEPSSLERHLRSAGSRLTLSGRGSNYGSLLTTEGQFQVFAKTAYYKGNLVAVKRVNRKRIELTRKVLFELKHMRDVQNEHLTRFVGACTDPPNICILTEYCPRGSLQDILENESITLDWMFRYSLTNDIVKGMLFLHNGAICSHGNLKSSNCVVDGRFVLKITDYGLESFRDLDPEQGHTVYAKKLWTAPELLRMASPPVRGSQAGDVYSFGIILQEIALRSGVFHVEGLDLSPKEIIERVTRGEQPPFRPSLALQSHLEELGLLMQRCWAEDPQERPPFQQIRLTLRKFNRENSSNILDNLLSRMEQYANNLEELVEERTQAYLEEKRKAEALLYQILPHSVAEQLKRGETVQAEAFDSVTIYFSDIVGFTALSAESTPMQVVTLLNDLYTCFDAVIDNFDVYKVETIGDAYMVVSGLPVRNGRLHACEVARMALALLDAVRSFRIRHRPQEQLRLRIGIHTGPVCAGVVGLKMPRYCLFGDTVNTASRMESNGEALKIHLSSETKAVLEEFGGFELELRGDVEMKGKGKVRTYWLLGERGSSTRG
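HEK293 cells stably expressing human Npr1 and cGMP GloSensor pGS-40F, loaded 2 h with 2% GloSensor reagent, given compound 30 min at room temperature. Luminescence read before and 20 min after 0.1 nM hNppA.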
The depositor's hits bear a star; & = joins results of further samples; [ ] = dose if it differs, or a comment. On the % scale 0 is the no-effect control and ±100 the full control effect; potency means the concentration at half of the fitted maximal effect. This is a subset; count on the stated rates, not on these rows.

What do the screens show for `COC(=O)C1=C(C)N=C2SC=C(CC(=O)N3CCCC3)N2C1c1cccc(F)c1` (centres undefined)?
hNpr1 antagonist: -16%

What do the screens show for `COc1cccc(-c2nccc3c(=O)cc(N(C)C)oc23)c1`?
hNpr1 antagonist: -5%[70.6 µM]

Results for O=C(O)c1cnc(NCc2ccccn2)nc1-c1ccncc1 ?
hNpr1 antagonist: 2%

What do the screens show for `COc1ccc(NC(C)=O)cc1NC(=O)C1CC(=O)N(c2n[nH]c3ccccc23)C1` (centres undefined)?
hNpr1 antagonist: 4%

What do the screens show for `Cc1c(CN2C[C@@H](COc3ccccc3)[C@H](C(N)=O)C2)cnn1C`?
hNpr1 antagonist: 1%

What do the screens show for `COC1CCC12CCN(C(=O)c1ccsc1)CC2` (centres undefined)?
hNpr1 antagonist: 4%

How did Cc1cccc2c1nc1n2[C@@H](CNCc2ccc(C#N)cc2)COC1 do in these assays?
hNpr1 antagonist: inconclusive

How did O=C(NCc1cccc(F)c1)c1nc2c(o1)CCN(CCCc1ccccc1)CC2 do in these assays?
hNpr1 antagonist: -2%[70.6 µM]

How did CCC[C@H]1CN(S(=O)(=O)c2cnn(CCC)c2)C[C@@H]1N do in these assays?
hNpr1 antagonist: 2%

How did COCCOC1CCN(C(=O)Nc2ccccc2F)CC1 do in these assays?
hNpr1 antagonist: 4%

How did CC(C)NC(=O)C1c2ccccc2C(=O)N(Cc2ccco2)C12CCCC2 (centres undefined) do in these assays?
hNpr1 antagonist: -2%

How did CCC(=O)N1CCc2sc(C(=O)NCCCOC)cc2C1 do in these assays?
hNpr1 antagonist: 2%

How did COC(=O)C(=O)N[C@H]1C[C@@H](Cc2cc(-c3ccccc3)on2)C1(C)C do in these assays?
hNpr1 antagonist: inconclusive

Results for O=C(NCC1CCCO1)c1cnc2c(c1)N(C(=O)CCc1ccccc1)CCC2 (centres undefined) ?
hNpr1 antagonist: -3%[70.6 µM]

What do the screens show for `CNC(=O)Nc1ccc(C)n(CC(=O)NCc2cc(C)ccc2C)c1=O`?
hNpr1 antagonist: 0%

What do the screens show for `NCC(=O)N1CCc2nc(-c3ccco3)nc(N3CC=CCC3)c2CC1`?
hNpr1 antagonist: 5%

What do the screens show for `CC(C)CC(=O)N1C[C@@H](Oc2ccccc2)C[C@@H]1C(=O)N1CCOCC1`?
hNpr1 antagonist: -7%

What do the screens show for `O=C(CCc1ccccc1)N1CCC(Cc2nc(-c3ccc(F)cc3)no2)CC1`?
hNpr1 antagonist: 5µM*

Results for CC(=O)N1CC(C(=O)NC(C)c2ccccc2)CC(c2cccc(C)c2)C1 (centres undefined) ?
hNpr1 antagonist: -1%

How did CC(O)c1cc2n(n1)CCN(C(=O)CCc1nc3ccc(F)cc3[nH]1)C2 (centres undefined) do in these assays?
hNpr1 antagonist: 4%

How did Cc1cc(C(=O)N2[C@@H]3CC[C@H]2CC(NC(=O)c2ccncc2)C3)nn1C (some centres undefined) do in these assays?
hNpr1 antagonist: 7%

What do the screens show for `COc1ccc(CN2CCOc3nc(Cc4ccccc4)ncc3C2=O)cc1`?
hNpr1 antagonist: -9%[70.6 µM]

Results for COc1ccc(Cn2c(=O)c3ccnn3c3ccc(C(=O)NCc4cccnc4)cc32)cc1 ?
hNpr1 antagonist: 15%

How did O[C@H]1CC[C@@H](Cc2cc(COc3ccccc3)on2)O[C@@H]1CNCc1cccnc1 do in these assays?
hNpr1 antagonist: -22%[70.6 µM]

What do the screens show for `CCCCC(=O)N1CCN(C2CCN(CCC(C)C)C2=O)CC1` (centres undefined)?
hNpr1 antagonist: 0%

How did O=C1CC2CCCC(C1)N2C(=O)N1CCCC1 do in these assays?
hNpr1 antagonist: 14%[70.6 µM]

What do the screens show for `O=C(c1cccc(N2CCNC2=O)c1)N1CCCC(CCc2ccccc2F)C1` (centres undefined)?
hNpr1 antagonist: -20%

Results for CCCNC(=O)Cc1csc2nc(C)c(-c3cc(C)n(-c4ccc(Cl)c(Cl)c4)n3)c(=O)n12 ?
hNpr1 antagonist: -5%

What do the screens show for `Cc1ccccc1Cc1c(C)nc2c(C(=O)NCCc3noc(-c4ccncc4)n3)cnn2c1C`?
hNpr1 antagonist: 4%

What do the screens show for `Cn1ncc(N2CCC(NC(=O)Cc3ccc(F)cc3)CC2)cc1=O`?
hNpr1 antagonist: 5%

Results for O=C(CCNc1c(-c2cccc(F)c2)nc2cnccn12)NCc1ccccc1 ?
hNpr1 antagonist: 5%

How did CC(=O)N1CCN(c2nc(-c3c(C)noc3C)cc3cc(C(C)C)oc23)CC1 do in these assays?
hNpr1 antagonist: -2%[70.6 µM]

How did COc1ccc(C(=O)N2CCCC3(C2)NC(=O)N(Cc2ccc(C)cc2)C3=O)cc1 (centres undefined) do in these assays?
hNpr1 antagonist: 4%

How did CC(C)(C)c1ccc(C(=O)N2CCCC(O)(CN3CCCC3)C2)cc1 (centres undefined) do in these assays?
hNpr1 antagonist: 2%

What do the screens show for `CS(=O)(=O)c1ccc(OCC2(CNCc3cccnc3)C[C@@H](O)[C@@H](O)C2)cc1` (some centres undefined)?
hNpr1 antagonist: 9%

What do the screens show for `O=C(c1ccc(CC2CCCNC2)cc1)N1CCc2nc[nH]c2C1` (centres undefined)?
hNpr1 antagonist: -1%

What do the screens show for `CN1CCC2(CC1)CN(C(=O)c1cnccn1)Cc1ccccc1O2`?
hNpr1 antagonist: 2%

How did COc1ccc2cc(C(=O)N3CCc4n[nH]c(=O)n4CC3)[nH]c2c1 do in these assays?
hNpr1 antagonist: 4%

What do the screens show for `CCS(=O)(=O)N(C1CC1)C1CCOC2(CCN(C(=O)c3sc(C)nc3C)CC2)C1` (centres undefined)?
hNpr1 antagonist: 0%

How did O=C(N[C@@H]1CN(c2ncccn2)C[C@H]1CO)c1ccoc1 do in these assays?
hNpr1 antagonist: 3%

Results for CC(C)c1nnsc1CN1CCn2nc(CCC(=O)N3CCCC3)cc2C1 ?
hNpr1 antagonist: 2%

Results for COCc1noc(CC2CCOC3(CCN(C(=O)NCc4ccc(OC)cc4)CC3)C2)n1 (centres undefined) ?
hNpr1 antagonist: -1%

Results for O=C(NCCc1cccs1)c1cccc2c1CCN2C(=O)Nc1ccc(F)cc1 ?
hNpr1 antagonist: inconclusive

What do the screens show for `CC(C)c1ccc(NC(=O)O[C@@H]2CO[C@H]3[C@@H]2OC[C@@H]3NS(=O)(=O)c2cccs2)cc1`?
hNpr1 antagonist: 0%

Results for Cc1noc(C)c1-c1cc2c(cc(C)n2C)c(NCc2ccncc2)n1 ?
hNpr1 antagonist: 5%[70.6 µM]

Results for O=C(c1nc(-c2cc(Cl)cc(Cl)c2)c2ccccn12)N1CCOCC1 ?
hNpr1 antagonist: -12%

What do the screens show for `COCC1(CNCc2ccc(F)cc2)C[C@@H](O)[C@@H](O)C1` (some centres undefined)?
hNpr1 antagonist: 0%[70.6 µM]

Results for O=C(c1cccs1)N1CCCN(c2cc(-c3ccc(Cl)cc3)[nH]n2)CC1 ?
hNpr1 antagonist: inconclusive

How did COCCNC(=O)[C@@H]1C[C@H](Oc2cccnc2)CN1C(=O)Cc1c[nH]c2ccccc12 do in these assays?
hNpr1 antagonist: -2%

How did Cc1ccccc1C(=O)NC1CCN(c2cc(-c3cccs3)[nH]n2)C1 (centres undefined) do in these assays?
hNpr1 antagonist: -16%

Results for O=C(c1ccccc1)N1Cc2[nH]cnc2C[C@H]1c1nc(-c2ccncc2)no1 ?
hNpr1 antagonist: 1%[70.6 µM]

How did COc1cccc(NC(=O)Cn2nc3n(c2=O)CCCC3)c1 do in these assays?
hNpr1 antagonist: -11%

How did O=C(O)C1CCCN(Cc2ccccc2OCCCN2CCOCC2)C1 (centres undefined) do in these assays?
hNpr1 antagonist: 1%

Results for O=C(CCN1c2ccccc2Sc2ccccc21)N1CCCC(c2nc(C3CCOCC3)no2)C1 (centres undefined) ?
hNpr1 antagonist: -25%

Results for Cc1ccccc1S(=O)(=O)N1CCn2c(nn(CC3CC3)c2=O)C1 ?
hNpr1 antagonist: 0%

Results for Cc1nn(C)c(C)c1CCC(=O)N1CCc2[nH]cnc2C1C(=O)O (centres undefined) ?
hNpr1 antagonist: -1%

How did Cn1cccc1CN1CC2(C1)NC(=O)c1ccccc1O2 do in these assays?
hNpr1 antagonist: 0%[70.6 µM]

How did CCCNC(=O)N1CCC2(CC1)NCCc1c2[nH]c2ccccc12 do in these assays?
hNpr1 antagonist: -1%

Results for Cc1noc(C)c1NC(=O)N1CCC(c2n[nH]c(=O)n2-c2ccccc2)CC1 ?
hNpr1 antagonist: -3%

How did Cc1cc(F)ccc1NC(=O)C1CN(S(C)(=O)=O)CC12CCCCC2 (centres undefined) do in these assays?
hNpr1 antagonist: 4%

Quoted at random: 5 compounds from above.
Results for O=C(CCN1c2ccccc2Sc2ccccc21)N1CCCC(c2nc(C3CCOCC3)no2)C1 (centres undefined) ?
hNpr1 antagonist: -25%

Results for Cc1ccccc1S(=O)(=O)N1CCn2c(nn(CC3CC3)c2=O)C1 ?
hNpr1 antagonist: 0%

How did COc1cccc(NC(=O)Cn2nc3n(c2=O)CCCC3)c1 do in these assays?
hNpr1 antagonist: -11%

How did CCCNC(=O)N1CCC2(CC1)NCCc1c2[nH]c2ccccc12 do in these assays?
hNpr1 antagonist: -1%

Results for Cc1nn(C)c(C)c1CCC(=O)N1CCc2[nH]cnc2C1C(=O)O (centres undefined) ?
hNpr1 antagonist: -1%

More records follow:
What do the screens show for `Cc1ccc(-c2ccc3nnc(CNC(=O)c4ccc(F)c(F)c4)n3n2)cc1C`?
hNpr1 antagonist: 4%

How did COCCOC1CN(C2CCN(C(=O)CC3CCN(C(C)=O)CC3)CC2)C12CCCCC2 (centres undefined) do in these assays?
hNpr1 antagonist: -4%

Results for Cc1ccccc1-c1nc(C2CC(=O)N(c3ccc(F)cc3)C2)no1 (centres undefined) ?
hNpr1 antagonist: -18%

What do the screens show for `COc1cccc(CN2CC[C@H]3C(=O)NCCCCCCN(Cc4ccncc4)[C@@H]3C2)c1OC`?
hNpr1 antagonist: -18%

Results for COCCn1c(=O)c2c(n1Cc1ccccc1)CN(Cc1ccc(C(C)C)cc1)CC2 ?
hNpr1 antagonist: -12%[70.6 µM]

How did Cc1ccc(NC(=O)c2ccc3c(c2)N(C)C2CCCCN2C3=O)cc1 (centres undefined) do in these assays?
hNpr1 antagonist: 0%

What do the screens show for `CCN(CC)C1(Cc2cc(COC)on2)COC1`?
hNpr1 antagonist: 3%[70.6 µM]

Results for Cn1ncc(N2CCC(CNC(=O)CCN3CCCCC3=O)C2)cc1=O (centres undefined) ?
hNpr1 antagonist: 0%

What do the screens show for `CCC(C)NC(=O)C(NC(=O)c1ccc(C)cc1)C1CCN(C(=O)c2ccc(F)cc2)CC1` (centres undefined)?
hNpr1 antagonist: 6%

Results for CN1CCN(C(=O)C2CCCCC(=O)N2)CC1 (centres undefined) ?
hNpr1 antagonist: 2%

How did Cc1cnc(C2CC2)n1C1CCN(C(=O)CC(C)C)CC1 do in these assays?
hNpr1 antagonist: 1%

What do the screens show for `O=C1CCN(Cc2ccncc2)CCCC(C(=O)NCc2cccc(C(F)(F)F)c2)CCN1` (centres undefined)?
hNpr1 antagonist: 0%

How did O=C(c1ccc(-c2ncc3cnc(-c4ccccc4)cn23)cc1)N1CCS(=O)(=O)CC1 do in these assays?
hNpr1 antagonist: -2%[70.6 µM]

What do the screens show for `O=C1[C@@H]2C[C@@H](CN2C(=O)C2CCOCC2)Oc2ccccc2N1Cc1ccc(OC(F)(F)F)cc1`?
hNpr1 antagonist: 0%

What do the screens show for `CN1CCN(C(=O)CCCOc2ccccc2)CC12CCNC(=O)CC2` (centres undefined)?
hNpr1 antagonist: 11%

Results for Cn1c(C(=O)NCCc2cnc[nH]2)nc2nc(-c3ccccc3)c(Cl)cc21 ?
hNpr1 antagonist: -13%[70.6 µM]

How did O=C(NCCn1cc(C2CCCNC2)nn1)c1ccc(F)cc1 (centres undefined) do in these assays?
hNpr1 antagonist: 2%

What do the screens show for `COc1ccccc1C(=O)N1CC2(C1)NC(=O)c1ccccc1O2`?
hNpr1 antagonist: 2%[70.6 µM]

How did O=C1CCN(C(=O)CCc2ccccc2)CCCC(c2nc(-c3ccccc3)no2)CCN1 (centres undefined) do in these assays?
hNpr1 antagonist: 7%

What do the screens show for `COc1ccc(CNc2ncnc3c2CN(c2ccc(Cl)cc2)C(=O)N(C)C3)cc1`?
hNpr1 antagonist: 2%

An excerpt of the results above, as a working copy:
What do the screens show for `O=C1[C@@H]2C[C@@H](CN2C(=O)C2CCOCC2)Oc2ccccc2N1Cc1ccc(OC(F)(F)F)cc1`?
hNpr1 antagonist: 0%

What do the screens show for `CN1CCN(C(=O)CCCOc2ccccc2)CC12CCNC(=O)CC2` (centres undefined)?
hNpr1 antagonist: 11%

Next records follow.
What do the screens show for `COc1ccc(CN2C(=O)CO[C@H](c3ccc(NC(=O)NC(C)(C)C)cc3)[C@H]2CO)cc1`?
hNpr1 antagonist: -1%

How did O=C(N[C@H]1CCOC[C@H]1C1CCOCC1)c1scc2c1OCCO2 do in these assays?
hNpr1 antagonist: -1%

How did Cc1nc(C)c(C(=O)N2CCC3(CC2)CC(N(C(=O)NC(C)C)C2CC2)CCO3)s1 (centres undefined) do in these assays?
hNpr1 antagonist: 4%

Results for CCCOc1nccnc1NC1CCN(C(=O)NCC)CC1 ?
hNpr1 antagonist: -2%

What do the screens show for `CCOc1cc(=O)n2c(c1C(=O)NC1CCCCCC1)CCCC2`?
hNpr1 antagonist: 4%

Results for Cc1noc(C)c1CNCC1(CO)C[C@@H](O)[C@@H](O)C1 (some centres undefined) ?
hNpr1 antagonist: 9%&0%[70.6 µM]

Results for Cc1cc(CNC(=O)[C@@H]2CCC[C@@H](NCc3nccs3)CN(C)C(=O)C2)no1 ?
hNpr1 antagonist: 0%[70.6 µM]

What do the screens show for `O=C(NCc1ccccc1)C1CCC(=O)N1C1CCN(C(=O)c2ccc3c(c2)OCO3)CC1` (centres undefined)?
hNpr1 antagonist: 1%
